# A1 inhib: inducers of caspase activity in MEF A1-2A-BIM cells, primary screen, A1 inhibitor project, cell-based, CaspaseGlo luminescence; AID 2241, 2010; caspase activation, % (no concentration beside the values); 21,000 compounds, 0.51% hits; caspase-Glo luminescence, 3 h; percent of clofoctol signal, DMSO as zero;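 active means most replicate scores above 10, or exactly half above 10 with mean activity above 10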;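 further: effector caspase 3 and 7 activity cleaving a DEVD luciferin substrate; 50 nL library stock added to about 30 µL; numbers are from one replicate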
# BJeLR viab HTS: BJeLR cell viability loss, primary screen, luminescence, CellTiterGlo ATP; BJeLR fibroblasts viability, 48 h; HRASV12, hTERT and SV40 LT/ST transformed; viability loss activity score, % (no concentration beside the values); 30,000 compounds, 0.64% hits; AID 2275, 2010; in the data active means viability loss activity score above about 50%; about a fifth of its hits are not listed in these tables;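 further: higher score means fewer live cells and less ATP luminescence; stock transfer was 50 or 100 nL into about 30 µL; 0% = vehicle wells and 100% = a reference killing control; one replicate is shown; the record names a cut of 85%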
# * hit, by the source's call; · = no result given. Only part of the results is shown; rates above refer to the full screens.
compound | A1 inhib | BJeLR viab HTS
COc1ccc(NC(=O)N(C)C[C@@H]2Oc3c(NS(=O)(=O)c4c(C)noc4C)cccc3C(=O)N([C@H](C)CO)C[C@@H]2C)cc1 | · | 1.2
C[C@@H]1CN([C@@H](C)CO)C(=O)c2cc(NC(=O)Cc3ccccc3)ccc2O[C@H]1CN(C)C(=O)Nc1ccc2c(c1)OCO2 | 0.9 | 3.9
C[C@H](CO)N1C[C@H](C)[C@@H](CN(C)S(=O)(=O)c2cn(C)cn2)Oc2ccc(NC(=O)CCCN(C)C)cc2C1=O | 0.2 | 6.3
C[C@H](CO)N1C[C@H](C)[C@@H](CN(C)C(=O)Nc2cccc3ccccc23)Oc2c(cccc2N(C)C)C1=O | · | 8.4
COc1cccc(NC2=C(C#N)C(=O)NC(c3cccc(OC)c3O)S2)c1 (centres undefined) | -0.5 | -4.7
CN(Cc1ccccc1)S(C)(=O)=O | 1.1 | 1.2
C[C@@H]1CN([C@H](C)CO)C(=O)c2cccc(NC(=O)c3ccc(-c4nccs4)cc3)c2O[C@@H]1CN(C)C(=O)Nc1ccccc1 | · | -1.4
CC(C)CNC(=O)c1ccc(COc2cc(Cl)ccc2Cl)o1 | -0.1 | 0.8
c1ccc(Nc2ncnc3sc(-c4ccccc4)cc23)cc1 | 0.6 | -2.4
C[C@@H]1CN([C@H](C)CO)C(=O)c2cc(NC(=O)Nc3ccccc3)ccc2O[C@@H]1CN(C)C | 0.0 | 0.9
C[C@@H]1CN([C@@H](C)CO)C(=O)c2cc(NC(=O)CCCCCC(=O)Nc3ccccc3N)ccc2O[C@H]1CN(C)C(=O)Nc1ccc(F)cc1 | · | -3.5
COCCN1C(=O)c2ccccc2C(C(=O)N2CCN(c3ccccn3)CC2)C1c1ccc(F)cc1 (centres undefined) | · | -4.0
C=CCn1c2ccccc2c2nnc(SC(CC)C(=O)Nc3nc4c(s3)CCCC4)nc21 (centres undefined) | 1.1 | -1.0
O=C1c2ccccc2C(=O)N1/N=C/c1ccccc1 | -0.2 | -1.4
C[C@@H]1CN([C@@H](C)CO)C(=O)c2cccc(NC(=O)NC3CCCCC3)c2O[C@H]1CN(C)Cc1ccc(C(F)(F)F)cc1 | · | -0.9
C[C@@H]1CN([C@@H](C)CO)C(=O)c2cc(NC(=O)C3CCCCC3)ccc2O[C@H]1CN(C)Cc1ccc(C(=O)O)cc1 | 0.4 | 1.9
CCCCn1c(C(F)(F)F)nc2c(=O)oc3ccccc3c21 | 0.3 | 0.4
Cc1noc(C)c1NC(=O)N(C)C[C@H]1Oc2ccc(NC(=O)C3CC3)cc2C(=O)N([C@H](C)CO)C[C@H]1C | -0.4 | -0.6
C[C@H]1CN([C@@H](C)CO)C(=O)c2cccc(NC(=O)C3CC3)c2O[C@@H]1CN(C)Cc1ccc(-c2ccccc2)cc1 | · | -0.9
CCOc1ccc(Br)cc1C1CC(=O)Nc2c1ccc(C)c2C (centres undefined) | · | -0.7

# Structures shown so far with fluorine (four):
compound | A1 inhib | BJeLR viab HTS
C[C@@H]1CN([C@@H](C)CO)C(=O)c2cc(NC(=O)CCCCCC(=O)Nc3ccccc3N)ccc2O[C@H]1CN(C)C(=O)Nc1ccc(F)cc1 | · | -3.5
COCCN1C(=O)c2ccccc2C(C(=O)N2CCN(c3ccccn3)CC2)C1c1ccc(F)cc1 (centres undefined) | · | -4.0
C[C@@H]1CN([C@@H](C)CO)C(=O)c2cccc(NC(=O)NC3CCCCC3)c2O[C@H]1CN(C)Cc1ccc(C(F)(F)F)cc1 | · | -0.9
CCCCn1c(C(F)(F)F)nc2c(=O)oc3ccccc3c21 | 0.3 | 0.4

# Remaining list, next part:
compound | A1 inhib | BJeLR viab HTS
COc1ccc(N2C(=S)SC3CS(=O)(=O)CC32C)cc1 (centres undefined) | · | 0.8
CC(=O)N[C@@H](Cc1ccccc1)C(=O)NN | -0.4 | 7.7
C[C@@H]1CN([C@@H](C)CO)C(=O)c2cc(NS(=O)(=O)c3ccccc3)ccc2O[C@H]1CN(C)Cc1ccncc1 | 0.5 | 0.0
C[C@@H]1CN([C@@H](C)CO)C(=O)c2cccc(NS(=O)(=O)c3ccccc3)c2O[C@@H]1CN(C)C(=O)Nc1ccccc1 | · | 0.0
C[C@@H]1CN([C@H](C)CO)C(=O)c2cc(NS(C)(=O)=O)ccc2O[C@H]1CN(C)C(=O)Nc1ccc(C(F)(F)F)cc1 | 0.5 | -4.0
C[C@H](CO)N1C[C@H](C)[C@@H](CN(C)C(=O)NC2CCCCC2)Oc2c(NC(=O)NC3CCCCC3)cccc2C1=O | · | 2.3
C[C@H](CO)N1C[C@H](C)[C@@H](CN(C)Cc2ccc(Oc3ccccc3)cc2)Oc2ccc(NC(=O)Cc3ccccc3)cc2C1=O | -0.2 | 1.1
COC(=O)c1ccc(CSc2nc3ccncc3[nH]2)cc1 | 0.5 | 5.8
C[C@H]1CN([C@@H](C)CO)C(=O)c2cccc(NC(=O)c3ccc(-c4nccs4)cc3)c2O[C@@H]1CN(C)C(=O)Nc1ccccc1 | · | -2.0
CCOn1c(=O)c(=O)n(OC)c2ccccc21 | 0.0 | 0.2
C[C@@H]1CN([C@H](C)CO)C(=O)c2cc(NC(=O)Nc3ccc4c(c3)OCO4)ccc2O[C@H]1CN(C)Cc1ccccc1 | 0.0 | -0.6
CC(=O)NCCc1ccc(S(=O)(=O)N2CCCCC2)cc1 | · | 3.6
COc1ccc(CN(C)C[C@H]2Oc3ccc(NS(=O)(=O)c4cccs4)cc3C(=O)N([C@@H](C)CO)C[C@H]2C)cc1 | 0.0 | -3.1
COc1ccc(NC(=O)N(C)C[C@@H]2Oc3ccc(NC(=O)CCN4CCOCC4)cc3C(=O)N([C@@H](C)CO)C[C@@H]2C)cc1 | -0.6 | -3.5
CCOc1ccc(NC(=S)N2CCn3cccc3C2c2ccc(OC)cc2)cc1 (centres undefined) | 1.0 | 3.0
COc1ccc(-c2cc(C(F)(F)F)nc(N3CCc4ccccc4C3)n2)cc1OC | · | -2.1
Nc1cc(C(Cl)=C(Cl)Cl)c(S(N)(=O)=O)cc1S(N)(=O)=O | -0.9 | -2.1
O=C(NC1CCCCC1)c1cc(-c2ccco2)on1 | · | -4.2
O=c1c(-c2ccc(O[C@@H]3O[C@H](CO)[C@@H](O)[C@H](O)[C@H]3O)cc2)coc2c([C@@H]3O[C@H](CO)[C@@H](O)[C@H](O)[C@H]3O)c(O)cc(O)c12 | 0.2 | 19.4
C[C@@H]1CN([C@@H](C)CO)C(=O)c2cc(NC(=O)Nc3ccc(F)cc3)ccc2O[C@@H]1CN(C)CC1CCCCC1 | 0.9 | -5.3
COc1ccc(S(=O)(=O)N(C)C[C@@H]2Oc3c(NC(=O)Nc4c(C)noc4C)cccc3C(=O)N([C@@H](C)CO)C[C@H]2C)cc1 | · | -3.6
COC(=O)c1c(C)ncc2c1COC(C)OC2 (centres undefined) | -0.3 | 1.6
C[N+](C)(Cc1ccccc1)Cc1ccccc1 | 0.5 | 1.9
C/C=C1\C(O[C@@H]2O[C@H](CO)[C@@H](O)[C@H](O)[C@H]2O)OC=C(C(=O)OC)C1CC(=O)OCC(O)c1ccc(O)c(O)c1 (some centres undefined) | 0.2 | 0.1
C[C@@H]1CN([C@@H](C)CO)C(=O)c2cc(NS(=O)(=O)c3ccc(F)cc3)ccc2O[C@H]1CN(C)Cc1ccc2c(c1)OCO2 | 1.3 | -1.7
Cc1noc(C)c1NC(=O)Nc1cccc2c1O[C@H](CN(C)C(=O)NC1CCCCC1)[C@H](C)CN([C@H](C)CO)C2=O | · | -1.6
Cc1oc2cc(Br)c(OC(=O)c3ccco3)cc2c1C(=O)OC(C)C | 1.0 | -1.4
COc1ccc(NC(=O)N(C)C[C@@H]2Oc3c(NC(=O)C4CCCCC4)cccc3C(=O)N([C@@H](C)CO)C[C@H]2C)cc1 | · | -2.8
C[C@@H]1CN([C@@H](C)CO)C(=O)c2cc(NC(=O)NC3CCCCC3)ccc2O[C@H]1CN(C)Cc1ccc(C(=O)O)cc1 | -0.8 | -4.2
COC(=O)C1Cc2c([nH]c3ccccc23)C(C)N1 (centres undefined) | 1.2 | -1.8
COc1ccccc1C(CCNS(=O)(=O)c1ccc(C)cc1)c1ccco1 (centres undefined) | · | -2.5
Cc1ccc(-c2cc(-c3c(C)nn(C)c(=O)c3N)[nH]n2)cc1 | -0.5 | 1.0
C[C@@H]1CN([C@H](C)CO)C(=O)c2cc(NC(=O)Nc3ccc(F)cc3)ccc2O[C@H]1CN(C)Cc1ccncc1 | -0.1 | 1.1
C[C@@H]1CN([C@H](C)CO)C(=O)c2cc(NC(=O)Nc3ccc(F)cc3)ccc2O[C@@H]1CN(C)Cc1ccc(C(F)(F)F)cc1 | 0.5 | -0.7
C[C@H](CO)N1C[C@H](C)[C@H](CN(C)S(=O)(=O)c2cn(C)cn2)Oc2c(NS(=O)(=O)c3ccc(F)cc3)cccc2C1=O | · | -1.0
Cc1noc(C)c1NC(=O)Nc1cccc2c1O[C@@H](CN(C)C(=O)Nc1ccc(F)cc1)[C@@H](C)CN([C@H](C)CO)C2=O | · | 4.0
COc1ccc(S(=O)(=O)Nc2cccc3c2O[C@H](CN(C)S(=O)(=O)c2c(C)noc2C)[C@H](C)CN([C@@H](C)CO)C3=O)cc1 | · | 4.7
CCOC(=O)c1ccccc1Oc1c(F)c(F)nc(NCCO)c1F | 0.7 | 3.2
Cc1ccccc1N1C(=O)CSC1=C(C#N)C#N | 0.4 | 2.8
C[C@@H]1CN([C@@H](C)CO)C(=O)c2cccc(N(C)C)c2O[C@H]1CN(C)S(=O)(=O)c1cccs1 | · | 2.3

# Ordered by the number under A1 inhib (lowest first): three from the list above
SMILES | A1 inhib
C[C@@H]1CN([C@H](C)CO)C(=O)c2cc(NC(=O)Nc3ccc(F)cc3)ccc2O[C@H]1CN(C)Cc1ccncc1 | -0.1
C[N+](C)(Cc1ccccc1)Cc1ccccc1 | 0.5
COC(=O)C1Cc2c([nH]c3ccccc23)C(C)N1 (centres undefined) | 1.2

# Remaining list, next part.
compound | A1 inhib | BJeLR viab HTS
O=C(c1ccc(Cl)cc1)N1CCN(C(c2ccccc2)c2ccccc2)CC1 | 0.0 | 2.4
COc1cc(SC)ccc1C(=O)Nc1ccccc1C(N)=O | 0.2 | 3.6
C[C@H]1CN([C@@H](C)CO)C(=O)c2cc(NC(=O)Cn3cnnn3)ccc2O[C@H]1CN(C)Cc1ccccc1 | 0.0 | 4.5
C[C@H]1CN([C@@H](C)CO)C(=O)c2cc(NS(=O)(=O)c3cccs3)ccc2O[C@@H]1CN(C)Cc1ccc(C(=O)Nc2ccccc2N)cc1 | · | 0.3
C[C@@H]1CN([C@@H](C)CO)C(=O)c2cc(NC(=O)Nc3ccccc3)ccc2O[C@H]1CN(C)C(=O)Nc1ccc2c(c1)OCO2 | -0.1 | 2.8
CC(C)c1cc(C(C)C)c(N)c(C(C)C)c1 | 0.9 | 5.0
CNCCC(Oc1ccccc1OC)c1ccccc1 (centres undefined) | -0.1 | -6.8
Cc1ccc(S(=O)(=O)Nc2ccc3c(c2)C(=O)N([C@@H](C)CO)C[C@@H](C)[C@@H](CN(C)S(=O)(=O)c2cn(C)cn2)O3)cc1 | 1.1 | -3.8
C[C@H](CO)N1C[C@H](C)[C@@H](CN(C)Cc2ccc(C(F)(F)F)cc2)Oc2ccc(NC(=O)Nc3ccc4c(c3)OCO4)cc2C1=O | 1.1 | 0.5
Cc1cc(C(=O)Nc2cccc3c2O[C@H](CN(C)Cc2ccc(-c4ccccc4)cc2)[C@@H](C)CN([C@@H](C)CO)C3=O)n(C)n1 | · | -4.7
C[C@@H]1CN([C@@H](C)CO)C(=O)c2cc(NC(=O)Nc3cccc4ccccc34)ccc2O[C@@H]1CN(C)Cc1ccc2c(c1)OCO2 | -0.5 | 5.2
COc1ccc(Nc2ncnc3ccccc23)cc1 | -2.5 | -14.2
C[C@H]1CN([C@@H](C)CO)C(=O)c2cc(NC(=O)Nc3ccc(C(F)(F)F)cc3)ccc2O[C@H]1CN(C)Cc1ccc(C(=O)O)cc1 | 0.3 | 2.4
Cc1cc(NCCN2CCCCC2)c2ccc3ccccc3c2n1 | -0.1 | 19.9
C[C@@H]1CN([C@H](C)CO)C(=O)c2cccc(NC(=O)Nc3ccccc3)c2O[C@@H]1CN(C)S(=O)(=O)c1cn(C)cn1 | · | 17.2
O=C(COc1ccc(Cl)cc1)NCc1n[nH]c(=S)n1-c1cccc(Cl)c1 | -0.2 | -1.9
C[C@@H]1CN([C@H](C)CO)C(=O)c2cccc(NC(=O)Nc3ccc(F)cc3)c2O[C@H]1CN(C)Cc1ccc(Cl)c(Cl)c1 | · | 4.5
CC1=C(C(=O)Nc2ccc(C)cc2)C2(CCCCC2)OC1=O | · | -4.5
C[C@H](CO)N1C[C@H](C)[C@H](CN(C)C(=O)Nc2ccccc2)Oc2c(NC(=O)c3ccc(-c4nccs4)cc3)cccc2C1=O | · | 1.3
O=S(=O)(Nc1ccc(O)c(Sc2nc3ccccc3s2)c1)c1ccccc1 | · | -0.6
COc1ccc(-c2nc(SCC(=O)CSc3n[nH]c(-c4ccc(OC)cc4)n3)n[nH]2)cc1 | 0.6 | -0.4
N[C@@H](C(=O)N[C@@H]1C(=O)N2C(C(=O)O)=C(Cl)CS[C@H]12)c1ccccc1 | 0.4 | -4.5
C[C@@H]1CN([C@H](C)CO)C(=O)c2cc(NC(=O)Nc3ccc(C(F)(F)F)cc3)ccc2O[C@H]1CN(C)Cc1ccc2c(c1)OCO2 | -0.5 | 3.8
CCS(=O)(=O)n1nc(-c2ccccc2)cc1N | 0.9 | -3.8
Cc1cccc(OCC(=O)Nc2c(C(=O)Nc3cccc(F)c3)oc3ccccc23)c1 | -0.9 | -2.8
